# HIV TAR-Tat – HIV-1 TAR-Tat binding disruption | 100,000 compounds, 0.6% hits | AID 1259389 | z-score (test concentration not listed) | HIV-1 TAR RNA, Tat peptide displacement FRET; active compounds read high;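 further: score is relative to mean and SD of negative controls; some compounds called inactive have numbers as strong as hits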
# CDC25B CDK2 inh – human CDC25B-CDK2/CyclinA binding inhibition; P30305+P24941; HTRF CDC25B-CDK2/CyclinA binding, anti-His/anti-Flag; active compounds read high; z-score (no concentration beside the values); 94,000 compounds, 0.72% hits;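 further: score is relative to mean and SD of negative controls; strong numbers were not always called active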
# The depositor's hits bear a star; · = no result given.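 How the source made its calls: active means z-score from 3 up in half or more of its runs; inactive means the rest.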 An unsorted share of the library; any-hit rate near 0.97%.
SMILES,HIV TAR-Tat,CDC25B CDK2 inh
O=C(CSc1nc(-c2ccc(F)cc2)nc2cc(=O)[nH]n12)Nc1ccccc1F,2,·
CCCN(CCC)CCNS(=O)(=O)c1ccc2c(c1)NC(=O)CCS2,0.7,·
Cc1cc(C)cc(-n2nnc(-c3nc(-c4cccs4)no3)c2N)c1,0.34,·
O=C(c1cccnc1)N1CCN(C(=O)c2cc(-c3ccco3)[nH]n2)CC1,-7.2,·
COc1ccc(S(=O)(=O)n2ccnc2)cc1C(C)(C)C,1.7,0.78
O=C(c1ccccc1)c1oc2ccccc2c1NC(=O)c1nn(-c2cccc(Cl)c2)ccc1=O,0.07,4.9
CC1=NS(=O)(=O)c2cc(C(=O)NCCN3CCOCC3)ccc2N1CC(C)C,2.3,·
COc1ccc(-n2c(Cc3cccn3C)nnc2SCC(=O)NCc2ccco2)cc1,·,-1.4
CC1CN=C(N(C(=O)Nc2cccc(Cl)c2)C2CCCCC2)S1 (stereo not drawn),·,-1.8
COC(=O)CN(C#N)c1nc(C)cc(C)n1,-0.82,-2.4
CC(C)OC(=O)c1cc2ccccc2c(=O)s1,-1.2,0.48
CSc1nc(C)cc(Oc2ccc(OCCOc3ccccc3)nn2)n1,-0.46,-1
CCN(C(=O)c1ccc2c(=O)n3c(nc2c1)CCCCC3)c1cc(C)ccc1C,·,0.26
COc1cc2c(cc1OC)C(C)N(C(=O)C1COc3ccccc3O1)CC2 (stereo not drawn),·,-1.5
COc1ccc(-c2nnc(SCC(=O)c3ccccc3)n2C)cc1OC,0.83,·
Cc1nc(N2CCC(C(=O)O)CC2)c2c(C)c(C)oc2n1,0.92,-0.4
CC1=CC2C(CC1=O)C(C)=CCC2C(C)C (stereo not drawn),2.1,·
COC(=O)C1C(=O)C2=C(CC1C)NC(C)=C(C(=O)OC(C)C)C2c1ccc(-c2ccccc2)cc1 (stereo not drawn),2.6,0.07
Nc1nc2n(n1)C(c1ccc(Cl)cc1)CC(=O)N2 (stereo not drawn),·,-0.64
Cc1ccc2nc(C3=C(O)CN(c4ccc(OC(C)C)cc4)C3=N)[nH]c2c1,3,1.6
O=C1Cc2cc(S(=O)(=O)N3CCOCC3)cc3c2N1CCC3,0.49,·
Cc1nc(S(=O)(=O)N2CCN(c3ccccc3F)CC2)cn1C,1,·
Cc1csc(-n2[nH]c(C)c(CC(=O)Nc3ccc(Br)cc3)c2=O)n1,0.87,-2
O=C(OCc1ccccc1)C1=NNC2(CC(=O)N(c3cccc(Br)c3)C2=O)C1 (stereo not drawn),0.93,-0.17
COCCNC(=O)Nc1ccc2c(c1)CCN2S(=O)(=O)c1ccccc1,1.4,·
Fc1ccc(CN2CCc3nc(N4CCN(c5ncccn5)CC4)ncc3C2)cc1,-0.7,·
CC(=O)OC(OC(C)=O)c1ccc(S(C)(=O)=O)cc1,·,-0.79
O=C1C(Cl)=C(c2ccccc2)N(c2ccccc2)C(=O)C1(F)c1ccccc1 (stereo not drawn),·,-0.74
O=c1[nH]cnc2nc(-c3ccccc3)c(-c3ccccc3)nc12,·,-1.9
CCn1ccc2cc(S(=O)(=O)N3CCCN(C(=O)NC4CCCCC4)CC3)ccc21,1.3,·
Cc1cc(C)c(Nc2nnc(C(C)(C)C)c(=O)[nH]2)c(C)c1,·,-0.17
O=C(CC1C(=O)N(c2ccc(F)cc2)C(=O)N1CCc1cccs1)Nc1ccc(Cl)cc1 (stereo not drawn),·,-0.55
CC(C)(C)NCc1nc(-c2ccccc2)no1,-0.29,-1.1
CCN(CC)CCNC(=O)c1c(C)oc2ncnc(N3CCOCC3)c12,0.72,·
O=C(CCn1c(=O)oc2ccccc21)N1CCCCC1,·,-2
Cc1occc1-c1nnc(SCC(=O)NCCC2=CCCCC2)o1,1.2,-0.27
COc1ccccc1NC(=O)Nc1nnc(COc2ccc(C)c(C)c2)s1,·,-4.9
CC(C)(C)c1ccc(OCc2nc(-c3cccnc3)no2)cc1,0.55,-0.09
Cc1cc(-c2ccc(C(C)C)c(S(=O)(=O)NC3CC3)c2)on1,0.59,·
COc1ccc(S(=O)(=O)Nc2cccc(N3CCCS3(=O)=O)c2)cc1F,0.77,·
Cc1csc(NC(=O)CSc2nc(=O)n(Cc3ccncc3)c3c2CCC3)n1,0.89,·
Cc1nc(C)n(C)c(=O)c1-c1ccccc1,0.9,-1.2
O=C1CC(c2ccc(F)cc2)Cc2nc(N3CCN(c4ccccc4)CC3)ncc21 (stereo not drawn),-0.25,0.01
O=C(CCc1nc(CSc2nc3ccccc3o2)no1)Nc1ccc(Cl)cc1F,2,·
COC(=O)c1cc2occc2n1Cc1ccc(Cl)cc1,·,0.48
CCn1c(=O)sc2cc(NC(=O)C(C)(C)C)ccc21,2,·
O=C(CSc1nnc(CNC(=O)c2ccco2)n1-c1ccccc1)Nc1nc2ccccc2s1,1.4,-0.35
CCSC1=C(C#N)C(=O)NC(C(C)C)S1 (stereo not drawn),-0.87,-1.4
Cc1ccc(-n2nnc(-c3nc(-c4ccccc4F)no3)c2C)cc1C,1.3,·
COCCn1c2c(c(=O)[nH]c1=O)C(c1ccccc1)C1=C(N2)c2ccccc2C1=O (stereo not drawn),2.3,-1.6
FC(F)(F)c1ccccc1-n1ccnc1,·,-0.96
COCCCNC(=O)c1cc2c(Cl)ccc3c2n1CCO3,0.86,·
O=C(Cn1ncn2c(cc3cc(F)ccc32)c1=O)NCCN1CCOCC1,1.3,-1.1
O=C(CC1(O)C(=O)N(Cc2ccccc2)c2ccc(Br)cc21)c1ccccc1 (stereo not drawn),·,-0.48
COc1ccc2c(c1)c(=O)c(S(=O)(=O)c1ccc(Cl)cc1)cn2C,1.3,2.5
CC(C)Cc1nc2ccccc2n1CC(=O)N(c1ccccc1)C(C)C,-0.01,-0.71
O=C1NC2=Nc3ccccc3NC(c3ccccc3)=C2C(c2ccc(N3CCOCC3)cc2)N1 (stereo not drawn),·,-2.5
O=C(O)CCCCn1c(=O)[nH]c2ccccc2c1=O,0.94,·
CN(c1ccc(F)cc1)S(=O)(=O)N1CCCC(C(=O)O)C1 (stereo not drawn),1.4,-1
Cc1nc2n[nH]c(N)c2c(C)c1[N+](=O)[O-],·,-0.17

# Next section
SMILES,HIV TAR-Tat,CDC25B CDK2 inh
O=C(COc1ccc(Cl)cc1)Nc1nccs1,26,0.39
Cc1csc(NC(=O)C(=O)c2cc(C)n(-c3ccccc3)c2C)n1,2.7,-0.44
O=C(CCC(=O)N1CCc2ccccc2C1)N1CC=C(c2c[nH]c3ccccc23)CC1,0.19,0.93
O=C(CCC(=O)N1Cc2ccccc2Oc2ncccc21)NC1CCCC1,0.99,·
Cn1c2ccccc2c2cnn(CC(=O)N3CCN(C(=O)c4ccco4)CC3)c(=O)c21,0.96,-0.26
CCNc1nc(Nc2ccc(C)cc2)c2cnn(C)c2n1,0.1,·
O=C1N(Cc2ccccc2)C2CS(=O)(=O)CC2N1Cc1ccccc1 (stereo not drawn),·,-0.11
O=C(NC1CCCC1)C(Cc1ccccc1)NS(=O)(=O)c1cccc2nsnc12 (stereo not drawn),·,-0.48
O=c1[nH]nc(-c2ccccc2)c2c1Nc1nnnn1C2c1ccccc1 (stereo not drawn),1.5,-1.2
Cc1c(C(=O)C(=O)N2CCC(C(N)=O)CC2)c2ccccc2n1C,·,-2
CC(NC(=O)C1OC2OC(C)(C)OC2C2OC(C)(C)OC12)C(=O)Nc1cccc2ccccc12 (stereo not drawn),·,-0.28
COc1ccc(C(CNc2nn3cnnc3c3ccccc23)N2CCOCC2)cc1 (stereo not drawn),-1.3,-0.37
Cn1c(=O)c2cc(S(=O)(=O)NCCC(=O)NCCC3=CCCCC3)ccc2n(C)c1=O,·,-0.69
O=C(NCc1ccc2c(c1)OCO2)c1ccc(CN2CC(=O)N3CCCC3C2=O)cc1 (stereo not drawn),2,·
Cn1c(=O)c2c(nc(NCCc3ccccc3)n2C)n(C)c1=O,0.85,-1.6
O=C(c1cc2c(=O)oc3ccccc3c2s1)N1CCCc2ccccc21,·,0.65
CCC1(C)Cc2ccccc2C(NC(=O)Nc2ccc(Cl)cc2)=C1C#N (stereo not drawn),1.4,-0.34
O=C(CCC(=O)N1CC2CCCN2c2ccccc21)NCCCN1CCCCC1 (stereo not drawn),-2.8,·
S=c1[nH]c(=S)c2ccccc2[nH]1,·,-0.9
O=C(N1CCN(c2ccccc2)CC1)C1(S(=O)(=O)c2ccc(Cl)cc2)CC1,·,0.33
COc1cccc(N2C(=O)C(N3C(=O)c4ccccc4C3=O)C2c2cc(OC)c(OC)c(OC)c2)c1 (stereo not drawn),·,0.66
CCCS(=O)(=O)N1CCCc2ccc(NS(=O)(=O)c3ccc(OC)cc3)cc21,1.2,·
CCCN1CCN(C(=O)c2cc(-c3ccco3)[nH]n2)CC1,-0.07,·
O=C(Cn1c(=O)oc2cc(Cl)ccc21)NCCc1ccco1,0.88,·
CCOC(=O)c1ccc(N2C(=O)C3CC=C(C)CC3C2=O)cc1 (stereo not drawn),-1.2,1.6
O=C(Nc1nc2ccccc2s1)c1cc2ccccc2o1,1.1,-5.7
CCn1c(CCc2ccccc2)nnc1SCc1nc(-c2cccs2)no1,1.9,0.11
CCOC(=O)N1CCN(S(=O)(=O)c2cc3c(cc2C)NC(=O)CO3)CC1,1.9,·
OCc1cnc(SCc2ccccc2)n1Cc1ccc(F)cc1,0.19,·
COc1ccc(Cn2cc(C(=O)c3ccc(F)cc3)c(=O)c3cc4c(cc32)OCO4)cc1,-1.3,-1.8
CC(=O)Oc1ccc(Cl)cc1C1=NN(C(C)=O)C(Cn2nc(C)cc2C)O1 (stereo not drawn),2.5,·
CCNc1nc2[nH]c(=O)cc(O)c2s1,-0.15,11*
S=c1nn[nH]n1CCc1ccc(Cl)cc1,·,2.4
COc1ccc(OC)c(NC(=O)Cn2nnc3sc4c(c3c2=O)CCC(C(C)(C)C)C4)c1 (stereo not drawn),1.8,-2.8
O=C(C1CC1)N1CCN(c2ccc([N+](=O)[O-])cc2-n2cccc2)CC1,·,-0.76
Nc1ncnc2nc(SCc3ccc4nsnc4c3)[nH]c12,2.3,-1.1
COc1ccc(NS(=O)(=O)c2ccc(-c3cc(C)[nH]n3)s2)cc1Cl,-0.08,·
O=[N+]([O-])c1ccc(C2OCCO2)s1,·,-0.84
C=C(C)CC(Nc1ccc(F)cc1)c1ccco1 (stereo not drawn),0.94,-0.68
Cc1nc(NC2=NCN(C(C)C)CN2)nc2ccccc12,-0.24,-0.03

# By substructure: those above containing a Cl atom (16)
SMILES,HIV TAR-Tat,CDC25B CDK2 inh
O=C(c1ccccc1)c1oc2ccccc2c1NC(=O)c1nn(-c2cccc(Cl)c2)ccc1=O,0.07,4.9
CC1CN=C(N(C(=O)Nc2cccc(Cl)c2)C2CCCCC2)S1 (stereo not drawn),·,-1.8
Nc1nc2n(n1)C(c1ccc(Cl)cc1)CC(=O)N2 (stereo not drawn),·,-0.64
O=C1C(Cl)=C(c2ccccc2)N(c2ccccc2)C(=O)C1(F)c1ccccc1 (stereo not drawn),·,-0.74
O=C(CC1C(=O)N(c2ccc(F)cc2)C(=O)N1CCc1cccs1)Nc1ccc(Cl)cc1 (stereo not drawn),·,-0.55
O=C(CCc1nc(CSc2nc3ccccc3o2)no1)Nc1ccc(Cl)cc1F,2,·
COC(=O)c1cc2occc2n1Cc1ccc(Cl)cc1,·,0.48
COCCCNC(=O)c1cc2c(Cl)ccc3c2n1CCO3,0.86,·
COc1ccc2c(c1)c(=O)c(S(=O)(=O)c1ccc(Cl)cc1)cn2C,1.3,2.5
O=C(COc1ccc(Cl)cc1)Nc1nccs1,26,0.39
CCC1(C)Cc2ccccc2C(NC(=O)Nc2ccc(Cl)cc2)=C1C#N (stereo not drawn),1.4,-0.34
O=C(N1CCN(c2ccccc2)CC1)C1(S(=O)(=O)c2ccc(Cl)cc2)CC1,·,0.33
O=C(Cn1c(=O)oc2cc(Cl)ccc21)NCCc1ccco1,0.88,·
CC(=O)Oc1ccc(Cl)cc1C1=NN(C(C)=O)C(Cn2nc(C)cc2C)O1 (stereo not drawn),2.5,·
S=c1nn[nH]n1CCc1ccc(Cl)cc1,·,2.4
COc1ccc(NS(=O)(=O)c2ccc(-c3cc(C)[nH]n3)s2)cc1Cl,-0.08,·

# Later entries.
SMILES,HIV TAR-Tat,CDC25B CDK2 inh
COc1cccc(Nc2nc(N3CCCCC3)nc3c2cnn3C)c1,1.4,·
CC1=C(C(=O)OCCOc2ccccc2)C(c2ccc3c(c2)OCO3)C2=C(CC(C)(C)CC2=O)N1 (stereo not drawn),1.2,-1.1
C=CCOC(=O)C1=C(C)NC2=C(C(=O)CC(C)(C)C2)C1c1cc(Cl)c(O)c(OC)c1 (stereo not drawn),-0.2,-1.9
C=CCNc1nc(Nc2ccc(Cl)cc2C)c2cnn(C)c2n1,0.77,·
O=S(=O)(Nc1cccnc1)c1ccc(-n2cccn2)cc1,1.4,·
Nc1ccc2nc(-c3ccccc3)oc2c1,0.43,-4.3
Cc1ccc(S(=O)(=O)NCCCn2ccnc2)cc1,·,-1.8
O=C(O)CSc1nnc(-c2cccs2)n1-c1ccccc1,2.6,-1.6
O=C1CC(=O)Nc2cc(S(=O)(=O)NC3CCCCC3)ccc2N1,·,-0.62
O=[N+]([O-])c1ccc(SC2=NCCN2)c(Cl)c1,·,-0.17
CCSc1nnc2c(n1)OC(c1ccc(O)c(O)c1)Nc1ccccc1-2 (stereo not drawn),-1.6,-1.2
CC1=NN(C)C(=O)/C1=C/N(C)C,·,-3.7
COc1cc(C2CC(=O)Nc3nc(N)[nH]c(=O)c32)ccc1O (stereo not drawn),-1.2,-1.9
CN(C)c1oc(-c2ccc(Cl)cc2)nc1C#N,2.8,-1.2
CC(C)NC(=O)NCCn1c(-c2ccccc2)nc2cccnc21,-0.66,·
COc1cc(OC)cc(C2C(C#N)=C(N)Oc3c2c(=O)[nH]c2ccccc32)c1 (stereo not drawn),·,-0.34
Cn1cc(S(=O)(=O)c2ccc(Cl)cc2)c(=O)c2cc(F)c(N3CCCC3)cc21,0.67,·
CCn1c(SCc2cc(=O)c3cc(C)cc(C)c3[nH]2)nnc1-c1cccs1,1.4,·

# Source: PubChem
